Beta cell apopt: beta cell apoptosis inhibition; protection from apoptosis, % (no concentration beside the values); INS-1E cytokine-induced death, ATP luminescence, 48 h; percent of positive-control rescue, neutral wells zero; hit rate 0.8% among 300,000; AID 435005;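 active means all replicates at 75% or more, or half of them and the mean; inconclusive means half reach 75% but not the mean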;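 further: 0% = cytokine-treated negative control wells and 100% = positive control rescue; higher means more ATP so stronger rescue from cytokine killing; wells of about 40 µL received 100 nL stock; the first replicate is given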
Vif A3G: HIV-1 Vif–A3G interaction blockers – biochemical, TR-FRET, GST-Vif 1-94, biotin-A3G peptide, dose response retest, primary screen (AID 1117319); TR-FRET GST-Vif / biotin-A3G peptide binding; higher % means a stronger effect; test concentration not given here; strong numbers were not always called active; inhibition, %, or IC50 in µM where a hit was titrated; hit rate 0.57% among 260,000;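 active means above the screen mean plus three standard deviations and confirmed in dose response; inconclusive means results disagree or hit not tested in dose response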;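 further: Vif residues 1-94 fused to GST binding biotinylated APOBEC3G peptide 110-148; 0% = full assay without inhibitor and 100% = GST in place of GST-Vif; retest series ran down from 100 µM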
MLL AF4-AF9 inh: inhibitors of human MLL-AF4/AF9 interaction; hit rate 0.47% among 350,000; P42568; inhibition, % at 10 µM; AID 651704; AlphaScreen, biotin-AF4 peptide binding to FLAG-AF9;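 active means every replicate reaching a set inhibition limit, whatever the replicate mean, cut at about 25% in these data; inconclusive means mean inhibition reaches that limit but some replicates miss it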;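 further: 0% = plate neutral control median and 100% = total signal loss; the record names both 10 and 1 µM as test concentration; the first replicate is given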
Target sequence (P42568 whole entry, looked up): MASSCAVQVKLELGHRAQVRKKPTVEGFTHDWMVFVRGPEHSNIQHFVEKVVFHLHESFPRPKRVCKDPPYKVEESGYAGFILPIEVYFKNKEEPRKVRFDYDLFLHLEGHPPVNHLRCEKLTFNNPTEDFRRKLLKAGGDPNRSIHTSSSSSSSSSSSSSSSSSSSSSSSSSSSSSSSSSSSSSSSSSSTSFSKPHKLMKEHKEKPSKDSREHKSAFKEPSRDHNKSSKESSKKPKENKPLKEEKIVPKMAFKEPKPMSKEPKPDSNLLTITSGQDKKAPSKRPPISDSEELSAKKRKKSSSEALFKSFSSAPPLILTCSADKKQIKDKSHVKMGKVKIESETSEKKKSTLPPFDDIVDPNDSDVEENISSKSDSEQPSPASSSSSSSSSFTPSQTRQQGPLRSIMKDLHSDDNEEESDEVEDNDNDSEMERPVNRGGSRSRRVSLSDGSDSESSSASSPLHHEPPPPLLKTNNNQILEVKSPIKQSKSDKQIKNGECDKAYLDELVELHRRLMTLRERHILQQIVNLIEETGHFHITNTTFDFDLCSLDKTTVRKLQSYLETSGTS
RanGTP-Imp inh: disruptors of Ran-importin-beta complex formation – biochemical, FRET, CFP-Ran, YFP-importin-beta, homogeneous, primary screen; cell-free CFP-Ran/YFP-importin-beta FRET ratio; inhibition, % (no concentration beside the values); hit rate 1.1% among 300,000; AID 2216;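 active means most replicates above 15%; inconclusive means exactly half above 15%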;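 further: 0% = DMSO wells and 100% = Ran loaded with GDP instead of GTP; wells of about 40 µL received 100 nL stock; the first replicate is given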
LANA-H2B inh: blocks KSHV LANA binding to histone H2A/H2B; hit rate 0.6% among 320,000; cell-free LANA-H2A/H2B peptide, fluorescence polarization; Q9QR71; inhibition, % (concentration not given with the values); in the data active means inhibition mostly above about 10%, no sharp cut-off; inactive means mostly below about 6.7%;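 further: stock transfer was 7.5 nL into about 10 µL; 0% = median of vehicle wells and 100% = median of positive control wells; one replicate is shown; the record names a cut of 25% in any replicate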
Calb FLC: C. albicans growth modulation with fluconazole. growth inhibition, % (test concentration not listed). hit rate 0.57% among 300,000. AID 1979. C. albicans CaCi-2 (fluconazole-resistant clinical isolate) + fluconazole, Alamar Blue growth, 48 h;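 active means most replicates above 75%; inconclusive means exactly half above 75%; inactive means most below 75%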;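 further: all wells also contain fluconazole at 8 µg/ml as a sub-toxic cotreatment; 0% = median of DMSO wells and 100% = median of geldanamycin control wells; wells of about 8 µL received 7.5 nL stock; the first replicate is given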
T cruzi inh: blocks replication of Trypanosoma cruzi; hit rate 1.4% among 300,000; inhibition, % (test concentration not listed); AID 1885; T. cruzi beta-gal in NIH3T3, luminescence, 90 h;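 active means mean inhibition across valid replicates above about 55%, limit read from the data; inconclusive means mean below that limit but half or more replicates reach it; inactive means mean below it, under half of replicates reach it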;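 further: signal also drops with host cell toxicity which is not excluded here; 0% = plate median of DMSO wells and 100% = zero luminescence signal; higher percent means less beta-gal luminescence so fewer parasites; stock transfer was 50 nL into about 50 µL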
A1 inh: inhibitors of the anti-apoptotic protein A1, read as caspase activation | caspase activation, % (concentration not given with the values) | MEF A1-2A-BIM cells, Caspase-Glo 3/7 luminescence, 3 h; percent of clofoctol response, vehicle zero | hit rate 0.066% among 330,000;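 active means over half of replicate activation scores above 10%, or exactly half above 10 with the replicate mean above 10; inconclusive means replicate mean below 10 yet half the replicates above 10; inactive means over half of replicates below 10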;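 further: wells of about 30 µL received 50 nL stock; many hits fall short of the cut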
The depositor's hits bear a star; ? = inconclusive; · = not tested or not shown. Random draw from the library. Share with any hit: about 4.3%.

SMILES	Beta cell apopt	Vif A3G	MLL AF4-AF9 inh	RanGTP-Imp inh	LANA-H2B inh	Calb FLC	T cruzi inh	A1 inh
CCN(CC(=O)NCc1ccc(Cl)cc1)C(=O)C1CCN(S(=O)(=O)c2ccc(OC)c(OC)c2)CC1	-1.8	-5.6%	-2.3	3.2	1.3	-2.1	11.7	-0.4
O=[N+]([O-])c1ccccc1Oc1ccc(C(F)(F)F)cn1	1.9	-1.3%	2.3	1.9	-2.5	-1.7	-20.9	1.0
CCOC(=O)c1ccc(NC(c2ccc(N(C)C)cc2)P(=O)(OC(C)C)OC(C)C)cc1 (stereo not given)	·	?	?	0.4	0.6	9.1	20.0	-0.5
Cc1ccc2nc(SCC(=O)Nc3nonc3N)[nH]c2c1	-6.5	4.3%	-1.1	-2.3	-4.0	7.6	-10.2	-0.4
COc1ccc(C(C#N)N2CCCCC2)cc1OC (stereo not given)	-0.3	0.8%	0.9	-3.1	5.9	-5.8	-13.3	0.2
COc1cccc(/C=C2/NC(=O)N(CC(=O)Nc3ccc(C)cc3)C2=O)c1OCc1cccc(C(=O)O)c1	-6.7	0.3%	1.4	-5.0	-1.6	-34.8	-6.8	0.3
COc1ccc(/C=C/C(=O)NC(=S)Nc2ccc(C(=O)O)cc2)cc1	-4.5	·	·	2.9	·	25.5	0.0	0.1
O=S(=O)(O)c1ccc(N=Nc2ccccc2)cc1	1.0	?	-0.7	2.5	-5.8	-3.4	-6.7	-0.1
O=C(Nc1ccccc1)N1CCN(Cc2ccccc2)CC1	-5.0	-4.2%	·	-2.5	-1.2	1.9	-9.6	0.0
O=C(Nc1cc(S(=O)(=O)N2CCCCC2)ccc1Oc1ccccc1)C1=COCCO1	2.0	0.6%	4.0	-0.9	4.4	2.5	30.9	0.2
Cc1ccc(C2NS(=O)(=O)N=C2N)cc1 (stereo not given)	-1.9	8.4%	·	0.8	2.2	-4.1	-14.9	0.5
CC(C)(C)OC(=O)NCc1ccc(CNC(=O)c2nc[nH]c2C(=O)NCc2ccccc2)cc1	7.5	·	1.5	·	-3.2	·	·	-0.6
COc1cc(C(=O)N/N=C/c2ccc(OC(=O)c3ccccc3)c(OC)c2)ccc1O	2.9	·	2.0	1.0	1.6	7.4	-7.8	1.2
COc1ccc(C2=NN(C(=O)c3ccc(Cl)c([N+](=O)[O-])c3)C(c3ccccc3)C2)cc1 (stereo not given)	13.8	6.0%	0.0	-0.5	-0.3	-2.9	-12.4	-0.1
CC1CCN(CC(O)COCCOc2ccc(Br)cc2)CC1 (stereo not given)	-8.2	8.2%	·	0.1	-0.3	0.7	39.3	0.0
O=C(CCCCCCCCN1C(=O)c2ccccc2C1=O)N1CCOCC1	5.5	1.4%	3.7	-0.8	2.6	3.7	-1.5	-0.2
Cn1c(N)c(Br)c(-c2ccc(F)cc2)c(C#N)c1=O	-4.5	5.6%	3.4	2.1	4.3	-0.4	-6.4	0.0
CN(c1nnc(N)s1)C1CCCCC1	-0.9	10.5%	2.3	1.7	-1.7	5.9	-6.8	-0.1
CO/N=C/c1ccc(N2CCN(C(=O)c3cccc(C(F)(F)F)c3)CC2)c([N+](=O)[O-])c1	-7.5	-0.6%	·	-1.5	-4.4	17.2	6.4	·
Nc1c(N(CCC2=CCCCC2)C(=O)Cc2ccc(F)cc2)c(=O)[nH]c(=O)n1Cc1ccccc1	43.6	-4.2%	0.0	-2.0	-1.8	-6.2	11.3	0.4

An excerpt from above, limited to LANA-H2B inh:
mol | LANA-H2B inh
CCN(CC(=O)NCc1ccc(Cl)cc1)C(=O)C1CCN(S(=O)(=O)c2ccc(OC)c(OC)c2)CC1 | 1.3
CCOC(=O)c1ccc(NC(c2ccc(N(C)C)cc2)P(=O)(OC(C)C)OC(C)C)cc1 (stereo not given) | 0.6
O=C(Nc1cc(S(=O)(=O)N2CCCCC2)ccc1Oc1ccccc1)C1=COCCO1 | 4.4
O=[N+]([O-])c1ccccc1Oc1ccc(C(F)(F)F)cn1 | -2.5

3 compounds already listed, arranged by the value under MLL AF4-AF9 inh, smallest number first:
smiles	Vif A3G	MLL AF4-AF9 inh	RanGTP-Imp inh	LANA-H2B inh
COc1ccc(C2=NN(C(=O)c3ccc(Cl)c([N+](=O)[O-])c3)C(c3ccccc3)C2)cc1 (stereo not given)	6.0%	0.0	-0.5	-0.3
COc1cccc(/C=C2/NC(=O)N(CC(=O)Nc3ccc(C)cc3)C2=O)c1OCc1cccc(C(=O)O)c1	0.3%	1.4	-5.0	-1.6
Cn1c(N)c(Br)c(-c2ccc(F)cc2)c(C#N)c1=O	5.6%	3.4	2.1	4.3

More records follow:
SMILES	Beta cell apopt	Vif A3G	MLL AF4-AF9 inh	RanGTP-Imp inh	LANA-H2B inh	Calb FLC	T cruzi inh	A1 inh
Cc1ccc(S(=O)(=O)N2CCOCC2)cc1C(=O)OCC(=O)NCCc1ccccc1	4.6	·	2.9	·	2.0	·	·	0.9
CCCCn1c(N)c(N(CCC(C)C)C(=O)c2cccc(N3C(=O)c4ccccc4C3=O)c2)c(=O)[nH]c1=O	·	·	1.0	0.3	-4.6	-7.1	6.2	1.9
COc1ccc(C(=O)Nc2ccc(Cc3ccncc3)cc2)cc1Br	0.3	-1.9%	-0.7	0.7	-1.8	11.8	0.6	-0.2
CC/C(C)=N/N1C(=O)c2ccccc2NC1(C)CC (stereo not given)	0.9	·	-3.5	-2.6	-2.0	-17.5	-18.2	-0.5
COCc1c(C(=O)NC(C)c2ccc(S(N)(=O)=O)cc2)oc2ccccc12 (stereo not given)	8.3	-5.8%	1.1	1.8	-0.6	11.9	-6.9	0.0
COc1ccc(OC)c(/C=C/C(=O)N(C)CC(=O)Nc2ccc(C)cc2)c1	-3.8	-2.0%	·	0.7	-3.5	0.6	-8.1	0.2
COC(=O)C1=C(C(=O)OC)[C@@H]2N(Cc3ccccc3)c3ccccc3[C@@]23C[C@@H](C(=O)OC)N(C(=O)NC2CCCCC2)C3=N1	1.9	·	1.7	0.5	0.1	19.0	12.7	-0.1
CCSCCOC(=O)C1=C(C)N(C)C(=O)NC1c1cc(OC)ccc1OC (stereo not given)	-1.0	-1.7%	·	-0.4	1.1	0.7	·	0.1
CCCC[n+]1c2ccccc2cc2ccccc21	48.2	·	-5.9	150.5*	-2.2	93.1*	68.2*	0.0
COc1ccc2c(c1)C(=O)N(CCc1ccc(S(=O)(=O)NC(=O)NC3CCCCC3)cc1)C(=O)C2(C)C	2.3	·	0.2	-4.7	-1.1	22.2	-7.0	1.0
Cc1csc(NC(=O)c2cc[n+]([O-])cc2)n1	-2.5	·	-1.3	1.4	-7.7	?	-8.2	0.6
COc1ccc(OC)c(NC(=O)CCN2CC(C)CC(C)C2)c1 (stereo not given)	·	-4.3%	·	4.4	-2.9	-5.4	1.8	-0.1
Cc1cc(C(=O)OCC(=O)Nc2nccs2)c2ccccc2n1	-2.3	7.4%	-3.0	-5.0	-1.4	-6.0	-0.8	-0.2
COc1cc(C(=O)OCC(=O)N2CCN(C(C)=O)CC2)ccc1OCC(C)C	0.1	·	1.2	1.4	2.1	-0.4	-11.6	0.2
CCN1CCN(c2ncnc3scc(-c4ccc(C)c(C)c4)c23)CC1	3.9	·	-9.6	1.1	-4.3	-1.4	6.0	-0.4
CC(C)(C)OC(=O)N1CCC(NC(=O)c2[nH]cnc2C(=O)Nc2cccc(Cl)c2)CC1	10.7	·	-3.4	·	0.8	·	·	-1.2
COc1ccccc1NC(=O)CCn1c(=O)c2cccn2c2ccccc21	-0.5	4.5%	3.9	1.4	3.0	-23.3	10.5	0.2
O=C(Nc1nccs1)c1cccc(S(=O)(=O)N2CCCCC2)c1	-4.3	8.9%	·	-6.3	0.0	2.5	-15.1	1.4
COc1ccc(-n2ncc3c(NC(C)C)ncnc32)cc1	-6.4	?	·	?	4.5	25.6	11.7	0.3
O=C(CSc1ccc2nnc(-c3ccccc3)n2n1)NCc1ccc2c(c1)OCO2	0.1	-5.6%	-2.9	-0.8	1.3	-2.3	-3.5	-0.6
CCOC(=O)C1(Cc2ccccc2)CCN(Cc2cc(OC)c3c(c2)OCO3)CC1	-3.7	·	6.6	-2.1	3.0	9.0	16.7	0.6
CCOc1ccc(S(=O)(=O)Nc2ccccc2C(=O)Nc2ccccc2N2CCOCC2)cc1	-0.6	-4.9%	·	-1.6	0.5	23.3	15.4	-0.9
O=C(N/N=C/c1ccccc1C(=O)O)c1ccncc1	-1.9	·	2.6	2.2	4.6	4.1	-11.4	-0.1
O=C(NCCN1CCCCCC1)c1ccc(N2CCCC2=O)cc1	-0.9	3.0%	·	-3.5	2.6	5.3	-6.6	-1.1
CCc1ccc(NC(=O)c2noc3c2CCCCC3)cc1	0.2	-6.2%	·	1.9	-7.8	-3.3	21.5	-0.8
Cc1ccc(C(=O)C(C)OC(=O)c2n[nH]c(=O)c3ccccc23)cc1 (stereo not given)	-0.3	14.0%	·	5.3	1.3	-7.4	-16.6	0.3
COP(=O)(OC)c1nc(-c2cccc3ccccc23)oc1NCCc1ccccc1	1.2	30.9%	·	-1.2	1.7	-3.3	26.9	-0.2
CSc1ccc(/C=N/N(C)S(=O)(=O)c2ccc(C)cc2)cc1	3.1	·	1.6	1.3	-2.1	-4.8	14.7	?
Cc1cc(OC(C)C(=O)NCCCN2CCOCC2)c2c(C)c(C)c(=O)oc2c1 (stereo not given)	2.9	·	-14.9	1.7	-0.9	·	7.0	0.2
O=C(Nc1cc(-c2ccccc2)[nH]n1)c1ccc(Cl)cc1	-0.8	·	1.2	3.3	3.8	-1.0	6.3	-4.6
O=C(CSc1nnc(Nc2ccccc2)s1)NC1CCCC1	2.7	·	-6.5	·	-4.4	·	·	-0.7
Cc1ccc(N2CC(NS(=O)(=O)c3cccs3)CC2=O)cc1 (stereo not given)	1.6	1.2%	-1.9	6.3	-3.8	-4.8	6.0	0.2
CCN(CC)CCN1C(=O)C(=O)/C(=C(/O)c2ccncc2)C1c1ccccc1F (stereo not given)	-2.2	0.9%	·	·	2.2	-7.1	·	0.3
C/C(=N/Nc1ncc(Br)cn1)c1ccc([N+](=O)[O-])cc1	-0.3	·	2.3	-2.5	1.7	-6.9	-6.0	2.2
O=C(NNC(=S)NCCc1ccccc1)c1ccc(Br)s1	1.2	-7.0%	0.2	-2.8	-3.6	33.8	-2.4	-0.1
COc1ccc(CCNC(=S)N2CCN(S(=O)(=O)c3ccc(C)cc3)CC2)cc1	-0.3	-1.8%	-0.5	-2.6	1.6	2.4	-7.5	0.2
CC(Sc1nc2ccccc2c(=O)n1CC1CCCO1)C(=O)Nc1ccc(S(N)(=O)=O)cc1 (stereo not given)	·	1.1%	-0.2	-1.8	7.9	-2.8	0.0	0.0

Records listed so far printed as active in RanGTP-Imp inh.
| molecule | Vif A3G | MLL AF4-AF9 inh | RanGTP-Imp inh | LANA-H2B inh |
| --- | --- | --- | --- | --- |
| CCCC[n+]1c2ccccc2cc2ccccc21 | · | -5.9 | 150.5* | -2.2 |
